PINK1 modulator: A Quantitative High throughput Screen to Identify Chemical Modulators of PINK1 Expression; PINK1 immunofluorescence, high-content cytometry, 24 h; Potency, µM (series often up to 76.6 µM), for the others: at the top dose activation (PINK1 increase), actives largely listed as activators; 410,000 tested, 0.2% active; active = well fitted activation curve with a large enough effect; inconclusive = small, poorly fitted or top-dose-only effect; inactive = flat fitted curve, though single readings scatter; cell line not stated here;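 note: potency is the fitted concentration of half-maximal effect; % of control where 0% means no effect; nearly all actives have a fitted effect of over 65% in size; a mitochondrial uncoupler was the plate control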
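Compound titrations (5 concentrations, 24 h) on a stable cell line; DMSO and CCCP controls. Endpoint: fixed-cell PINK1 immunofluorescence with mitochondrial, cell and nuclear markers, scanned by microplate cytometer.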
ClpP mod: qHTS Assay for Activators of ClpP; ATP-dependent Clp protease proteolytic subunit (Bacillus subtilis (strain 168)), P80244; Potency, µM (highest dose often 57.5 µM), inactives show top-dose activity change, negative = active; purified B. subtilis ClpP, FRET peptide cleavage, 20 min; 340,000 tested, 1.9% active; AID 651965, 2013; active = well fitted falling curve with a large enough effect; inconclusive = small, poorly fitted or top-dose-only effect; inactive = no such curve, though single readings can be large or run the other way; note: potency is the fitted concentration of half-maximal effect; the source files actives as falling curves though it sought activators and does not explain the sign; nearly all actives have a fitted effect of over 65% in size; many hits overshoot -100%
Target sequence (P80244 whole entry, looked up): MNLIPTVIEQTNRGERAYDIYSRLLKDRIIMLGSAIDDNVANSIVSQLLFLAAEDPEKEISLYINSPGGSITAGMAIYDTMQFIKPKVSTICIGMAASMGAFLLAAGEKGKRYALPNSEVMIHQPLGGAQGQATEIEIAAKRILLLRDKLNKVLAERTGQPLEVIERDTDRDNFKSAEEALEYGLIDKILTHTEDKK
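FRET quenching reversal measured ClpP activation: 10 microg/mL B. subtilis ClpP at pH 8 with the FRET-FV decapeptide, read at 430 nm after 320 nm excitation. The 20-min minus 0-min signal was scaled between DMSO/no-enzyme wells and ADEP (5.8 microM final).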
TRPV1 potentiator: HTS Assay for Compounds that Act as Potentiators of the Vanilloid Receptor 1. TRPV1-expressing cells, Fluo-8 calcium influx, capsaicin EC20 potentiation; host cell line not named in the record; control for the full effect not named in the record. potentiation, % at 8.33 µM. 320,000 tested, 0.02% active. AID 540277, 2011; active means potentiation above 80%; inconclusive means 30% to 80%; inactive means below 30%; note: 0% is about no effect
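TRPV1-expressing cells were cultured overnight at 35.5C and loaded with Fluo-8 calcium dye for 40 to 90 min at room temperature. After a 10 s baseline, compound was added and calcium influx was read kinetically for 3 min (ex 480/em 520 nm).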
TRPML1 blocker: qHTS for Inhibitors of the Human Mucolipin Transient Receptor Potential 1 (TRPML1) | Mucolipin-1 (Homo sapiens), Q9GZU1 | TRPML1-inducible cells, Ca2+ dye fluorescence, FDSS; active compounds read low; inhibition of EC80 agonist-evoked calcium signal | activity change, negative = inhibition, % (no concentration beside the values) | 390,000 tested, 0.02% active; in the data active means activity change below about -50%; inconclusive means about -30% to -50%; inactive means above about -30%;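 note: stimulus is agonist 54-4 at its EC80 concentration; % is set by controls: 0 for no effect and ±100 for the full control effect; compound concentration not given in the record; the text of the record puts the active cut at -80%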
Target sequence (Q9GZU1 whole entry, looked up): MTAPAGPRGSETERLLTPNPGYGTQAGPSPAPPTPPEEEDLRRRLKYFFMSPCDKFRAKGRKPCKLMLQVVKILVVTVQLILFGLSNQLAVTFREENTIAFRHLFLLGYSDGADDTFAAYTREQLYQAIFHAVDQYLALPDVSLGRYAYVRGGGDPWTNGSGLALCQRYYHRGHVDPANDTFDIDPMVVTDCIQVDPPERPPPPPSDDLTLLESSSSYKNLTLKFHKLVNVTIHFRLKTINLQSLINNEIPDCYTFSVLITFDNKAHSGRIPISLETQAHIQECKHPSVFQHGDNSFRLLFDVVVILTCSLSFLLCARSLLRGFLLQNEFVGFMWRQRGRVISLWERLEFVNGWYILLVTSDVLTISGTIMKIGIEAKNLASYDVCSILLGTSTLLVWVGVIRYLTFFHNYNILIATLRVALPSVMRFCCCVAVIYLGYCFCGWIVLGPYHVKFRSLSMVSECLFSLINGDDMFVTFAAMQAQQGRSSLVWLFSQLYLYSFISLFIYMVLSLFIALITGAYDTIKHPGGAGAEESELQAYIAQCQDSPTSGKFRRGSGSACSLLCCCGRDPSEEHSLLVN
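TRPML1-DL cells, Tet-induced overnight (~16 h, 37 °C) at 1,500 cells/well, were loaded with Ca8 no-wash dye plus quencher for 45-90 min at room temperature. Compounds were pinned during FDSS kinetic reading; agonist 54-4 at EC80 (4 uM final) then added.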
Menin-MLL FL inh: qHTS Assay for Inhibitors Targeting the Menin-MLL Interaction in MLL Related Leukemias: Competition With Fluorescein Labeled MLL-derived Peptide; Fluorescence polarization, fluorescein-MLL peptide displacement from menin; 290,000 tested, under 10 active; FP activity change, % at 61.4 µM; inconclusive = falling polarisation curve, or a change in total fluorescence; inactive = total fluorescence flat and polarisation flat or rising; no compound was filed as active; the % refers to the polarisation; negative = inhibition;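 note: % of control where 0% means no effect; inhibitors lower the polarisation; unlabelled MLL peptide was the positive control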
Sfp inh: qHTS Assay for Inhibitors of Bacillus subtilis Sfp phosphopantetheinyl transferase (PPTase) | 4'-phosphopantetheinyl transferase ffp (Bacillus subtilis), Q9F4F7 | Biochemical Sfp PPTase activity, qHTS | 310,000 tested, 3.5% active | AID 1490, 2009 | Potency, µM, without a hit: max response, negative = inhibition, most hits filed as inhibitors; active = well fitted inhibition curve with a large enough effect; inconclusive = small, poorly fitted or top-dose-only effect, or another doubt; inactive = no such curve, though single readings can be large or run the other way;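 note: the enzyme is Sfp with the accession as filed and its product quenches rhodamine fluorescence; potency is the fitted concentration of half-maximal effect; 0% = enzyme reaction without inhibitor and -100% = no enzyme wells; top concentration of the series not given in the record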
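Reaction rates are the 30-min fluorescence difference (ex 525, em 598 nm) in wells containing 15 nM Sfp, 5 uM rhodamine-CoA and 12.5 uM BHQ-2-YbbR at pH 7.6 with 10 mM MgCl2.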
TRPML1 agonist: qHTS for Agonists of the Human Mucolipin Transient Receptor Potential 1 (TRPML1); TRPML1-expressing cells, Ca2+ dye fluorescence, FDSS; host cell line not named in the record; reference of the full effect not given here; activation, % (test concentration not listed); 410,000 tested, 0.12% active; AID 624414, 2012; in the data active = activation above about 50%; inconclusive = about 30% to 50%; inactive = below about 30%; note: 0% is about no effect; the text of the record puts the active cut at 80%
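TRPML1-DL cells, Tet-induced overnight (~16 h, 37 degrees C), loaded 45-90 min at room temperature with Ca8 no-wash calcium dye plus quencher. FDSS fluorescence: 10 s baseline, compound pin-transfer, 110 s agonist read, then EC80 54-4 (4uM final) and 110 s antagonist read.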
An asterisk follows results filed as active; ? = inconclusive; / = not tested or not shown; & = joins results of further samples; [ ] = dose if it differs, or a comment.

SMILES	PINK1 modulator	ClpP mod	TRPV1 potentiator	TRPML1 blocker	Menin-MLL FL inh	Sfp inh	TRPML1 agonist
O=[N+]([O-])c1cccc(CSc2nnc3ccccn23)c1	0.0%	/	-1.2	-4.1	-0.2	19.1%	-0.1
Cc1noc(C)c1C(=O)N1CCC2(CC1)CN(c1ncccn1)C2	0.6%	/	/	/	4.7	13.7%	/
S=c1[nH]nc(Cn2cnc3ccccc32)n1-c1ccccc1Cl	0.1%	-0.7%	/	2.4	1.9	89.1µM*	1.1
CC(C)CCn1c(N2CCc3ccccc3C2)nc2c1c(=O)[nH]c(=O)n2C	0.3%	-1.7%	0.0	3.9	0.5	24.7%	-0.7
CC1CCN(CCCOc2ccc(Br)cc2Cl)CC1	3.9%	/	-3.4	11.2	-5.0	-3.9%	-0.2
CN(C(=O)CC1C(=O)NCCN1Cc1c(F)cccc1Cl)C1CCOCC1 (configuration not stated)	-0.5%	3.9%	2.4	1.4	-5.8	4.2%	-0.6
CC(C)Cc1nc2oc3c(NCc4cccnc4)ncnc3c2c2c1CCC2	/	17.8µM*	-5.9	11.0	4.9	10.5%	0.6
CCc1nc(Nc2ccc(OC)cc2OC)c2oc3ccccc3c2n1	2.1%	/	9.9	3.7	0.8	-12.1%	3.1
O=[N+]([O-])c1ccc(Cl)c(S(=O)(=O)NCCc2ccccn2)c1	-0.5%	-1.6%	/	4.0	/	/	1.5
O=C(Cc1csc2nc(-c3ccccc3)cn12)NCc1ccc(F)cc1	3.5%	-1.1%	/	14.9	/	/	-0.1
CC(C)C(=O)NC(=S)Nc1sc2c(c1C(N)=O)CCCC2	4.1%	-1.4%	0.9	9.7	1.1	?	-0.8
CCOC(=O)c1cc2sccc2n1CC(=O)N1CCN(C(=O)c2ccco2)CC1	-5.4%[38.3 µM]	-1.2%	1.3	8.0	-1.2	-6.5%	-0.3
CN(C)c1c([N+](=O)[O-])ncn1C	4.2%	0.7%	-10.6	24.3	0.8	16.7%	-0.9
COc1ccc(-c2cc(=O)oc3cc(OC(C)C(=O)NC4CC4)ccc23)cc1 (configuration not stated)	2.4%	-1.6%	-16.5	/	2.3	1.7%	/
C[C@H](NC(=O)c1ccco1)C(=O)NNC(=O)c1ccc(F)cc1	1.3%	/	/	2.9	/	/	-0.6
CCOC(=O)c1cnc2c(C)cc(C)cc2c1Nc1cccc(C(=O)O)c1	0.7%	-2.9%	/	-19.5	/	/	2.4
O=C(O)c1cccc(NC(=S)N/N=C/c2ccccc2OCc2ccc(Br)cc2)c1	-2.4%	/	-7.6	-6.6	4.5	-16.4%	-0.6
Cc1ccc(NC(=O)CN2C(=O)S/C(=C/c3ccc(-c4cc(C(=O)O)ccc4C)o3)C2=O)cc1C	-0.9%[38.3 µM]	-2.3%	4.0	7.8	?	56.2µM*	2.7
COC(=O)CCC(=O)Nc1cc(OC)c(OC)cc1Cc1nccc2cc(OC)c(OC)cc12	-0.8%	/	-0.5	36.6	1.4	14.2%	1.1
O=C(CSc1nnc(C2CC2)n1Cc1ccccc1)NCc1ccccc1	3.6%	1.2%	-5.1	10.2	1.1	7.5%	-0.3
Cn1c(SCC(=O)Nc2ccc3c(c2)OCCO3)nnc1C(F)(F)F	1.3%	-1.7%	2.0	-11.7	/	/	-0.2
CC1CC(C)CN(CC(O)COCc2ccccc2F)C1 (configuration not stated)	11.3%	2.4%	3.6	-13.4	3.3	8.7%	0.0
CCN1CCN(Cc2ccc(NC(=O)c3cc(NC(=O)c4cncc(-c5ccc(C#N)cc5)c4)cc(OC)c3)cc2C(F)(F)F)CC1	-0.5%&-1.3%	?	?	12.3&-1.0	-1.3	?	0.2&0.8
CC(=O)c1ccc(NC(=O)Cn2cnc3nc4c(cc3c2=O)CC(C)CC4)cc1 (configuration not stated)	?	-1.5%	/	-12.2	/	/	-0.8
COC(=O)C(NNc1ccc(F)cc1)(NC(=O)c1ccccc1)C(F)(F)F (configuration not stated)	1.7%	144.0%	-1.4	3.6	0.3	6.6%	1.7
Fc1ccc(CN2CCc3nc(Nc4ccccc4)ncc3C2)cc1F	0.9%	-1.5%	/	-13.8	/	/	-0.2
CCCCn1c2ccc(F)cc2c2nnc(SCCN(CC)CC)nc21	-0.5%	-0.8%	/	3.8	/	/	-0.8
Cc1cccc(N2CCN(C3(c4ccccc4)C(=O)c4ccccc4C3=O)CC2C)c1 (configuration not stated)	3.7%	1.3%	/	-25.5	/	/	0.0
COc1ccc2c(C)cc(SCC(=O)N(C)C3CCS(=O)(=O)C3)nc2c1 (configuration not stated)	-1.1%	/	19.3	36.1	?	21.3%	1.5
CSCCC(NC(N)=O)C(=O)Nc1ccc(C)cc1 (configuration not stated)	2.0%	/	0.1	5.8	2.0	25.1%	0.5
CSc1sc(C(=O)O)c2c1C(=O)CCC2	-1.4%	1.6%	-1.8	-6.2	-0.6	13.1%	-0.4
CC(C)c1ccc(C(=O)NC2=NCCS2)cc1	2.0%	1.7%	-14.9	5.2	-2.6	12.2%	-0.3
O=C(c1cc(-c2ccc(O)cc2)on1)N1CCOCC1	0.5%	/	15.3	6.5	-1.5	21.6%	-0.4
CCOc1cc(N2CCOCC2)c(OCC)cc1NC(=O)c1ccc(NC(C)=O)cc1	3.4%	-3.2%	-3.3	9.7	-0.6	7.5%	0.0
Cc1ccc(C)c(S(=O)(=O)n2nc(C)c(S(=O)(=O)N3CCCCCC3)c2C)c1	-0.2%	-0.5%	/	0.0	/	/	-0.6
CCOC(=O)c1cc(=O)nc(N)s1	0.8%	-1.8%	/	1.8	/	/	0.7
CN(C)c1ccc(C(C(=O)NC2CCCC2)N(C(=O)c2ccco2)C2CC2)cc1 (configuration not stated)	1.1%	/	-2.6	11.6	4.0	1.0%	-0.2
Cc1ccc(C)c(NC(=O)c2ccc3nc(CCc4ccccc4)oc3c2)c1	1.8%	22.1%	/	-21.1	/	/	-0.5
Cc1nn(C(=O)c2cc3sccc3[nH]2)c(C)c1C	-2.3%[38.3 µM]	-8.3%	-1.5	18.9	0.7	-10.6%	0.1
CN(Cc1ccccc1)C(=O)Cn1nnc(-c2ccccc2)c1COc1ccc2ccccc2c1	0.8%	-9.3%	/	/	/	/	0.0
Nc1cc(-c2ccc(Br)cc2)nn1S(=O)(=O)c1ccccc1	11.1%	1.3%	-6.4	1.7	2.3	-7.8%	-0.1
COc1ccc2oc(C(=O)OCC(=O)NC(C)c3ccccc3)c(C)c2c1 (configuration not stated)	7.2%	3.5%	26.9	1.9	/	-3.3%	1.4
COc1ccc(CNC(=O)C2CCCN(S(=O)(=O)c3cccc4nsnc34)C2)cc1 (configuration not stated)	0.2%&2.2%	0.0%	-2.7	4.3&15.9	3.6	10.4%	0.4&-1.3
CCCCNC(=O)C1(C)CCCCN1C(=O)c1ccc(C#N)cc1 (configuration not stated)	0.1%	-1.5%	/	/	/	/	-0.8
CCOC(=O)C(/C=C(\C#N)C(=O)OCC)=C(/N)N1CCN(c2c(C)cccc2C)CC1	0.5%	1.4%	-2.2	8.3	-3.1	4.5%	0.3
CCOCc1nc(C)c(Cl)c(NS(=O)(=O)c2ccc(N)cc2)n1	-0.7%	0.5%	-0.3	-9.1	1.4	6.1%	-0.5
CS(=O)(=O)c1cccc(NC(=O)c2ccc(Cl)c(Cl)c2)c1	1.7%	/	-17.2	-1.1	3.1	9.4%	0.4
C=CCn1c(SCC(=O)Nc2c(C)cccc2C)nnc1-c1ccncc1	0.3%	-2.8%	0.3	-4.8	0.3	11.1%	-0.1
Cc1ccc(-c2[nH]ncc2C(=O)c2ccccc2C)c(O)c1	4.8%	/	14.9	33.2	2.7	4.5%	1.2
COc1cc(-c2cc3nc(NCCc4ccc(S(N)(=O)=O)cc4)ccn3n2)cc(OC)c1OC	13.1%	4.4%	/	/	/	/	-0.3
The list continues:
SMILES	PINK1 modulator	ClpP mod	TRPV1 potentiator	TRPML1 blocker	Menin-MLL FL inh	Sfp inh	TRPML1 agonist
C/C(N)=C(/C#N)C(=O)CSc1n[nH]c(-c2ccccc2Br)n1	-0.5%&-0.9%	-1.2%	-0.9	6.5&6.6	4.1	-3.5%	0.3&-0.6
N#CCSc1nnc(COc2cccc3ccccc23)n1-c1cccc(Cl)c1	1.2%	-1.1%	-2.3	-4.8	-3.6	3.0%	0.2
O=C(NCc1ccc(Cl)c(Cl)c1)c1ccco1	0.3%	0.4%	-17.6	6.1	4.5	18.2%	0.7
NC(=O)COC(=O)c1ccc(-c2ccccc2)cc1	-1.7%	3.3%	-8.9	-2.6	0.1	7.0%	-0.2
CN(CCc1ccccc1)C1CCCN(C(=O)Cn2cccn2)C1 (configuration not stated)	0.0%	1.1%	-6.1	31.8	/	9.5%	0.6
COc1ccc(-c2csc(N(CCCN(C)C)C(=O)c3cccs3)n2)cc1	-8.2%[38.3 µM]	-0.8%	-1.7	-12.1	-0.4	-16.0%	-0.4
COc1ccc(CCNC(=O)CN(c2ccccc2)S(=O)(=O)N(C)C)cc1OC	0.0%	-1.9%	/	3.2	/	/	0.9
CCN1CCN(C(=O)c2ccccc2N(Cc2ccccc2)S(=O)(=O)c2ccc(OC)cc2)CC1	1.2%	-2.4%	5.1	10.1	14.1	11.2%	-0.1
CCOC(=O)C1=C(c2ccccc2)OC(N)=C(C#N)C1c1ccc(Cl)s1 (configuration not stated)	5.8%[38.3 µM]	-3.7%	/	26.7	?	-13.5%	2.3
CCn1ncc(CN2CCN(Cc3ccc(OC)c(C)c3C)C(CCO)C2)c1C (configuration not stated)	-2.8%	/	-0.1	16.0	-0.5	-1.1%	0.0
O=C(CN1C(=O)C2C3C=CC(C3)C2C1=O)NCCC1=CCCCC1 (configuration not stated)	3.0%	-0.5%	-8.9	-7.2	5.4	8.2%	1.0
CCN(CC)CCOC(=O)C1(c2ccccc2)CCOCC1	-0.4%	-2.6%	1.6	8.9	0.2	5.6%	-0.2
Cc1nnc(NC(=O)C(C)Sc2nncn2C)s1 (configuration not stated)	0.9%	-1.0%	-0.7	6.3	2.0	17.3%	0.3
